MT1-MMP act inh = blocks activation of human MT1-MMP | P50281 | HT1080 RFP-PRO-GFP cells, GFP/RFP ratio fluorescence, overnight; percent of plate control window, DMSO zero | GFP/RFP ratio change, % at 20 µM | 360,000 compounds, 0.061% hits;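 active = GFP/RFP ratio change of at least 30% with cell ATP level not reduced by more than half and red fluorescence within 50% of control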; also: strong numbers were not always called active
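Assay system: RFP-PRO-GFP reporter HT1080 cells; read-out basis: GFP/RFP fluorescence ratio; benchmarks: DMSO wells and RFP-L50D-GFP cells; doses: 20 µM single dose, 1% DMSO; schedule: overnight cell settling, then overnight compound exposure, 37 °C, 5% CO2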
PABP FP inh = PABP-poly(A) binding inhibition; P11940; inhibition, % at 35 µM; PABP-poly(A) RNA binding, fluorescence polarization; 290,000 compounds, 1% hits; AID 2014;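 active = 50% or more with normal probe brightness, or confirmed in later tests; inconclusive = above 50% with abnormal brightness, or retests that disagree; inactive = below 50% or failed in later tests; about a fifth of its hits are not listed in these tables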;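 also: calls also rest on retests at 20 µM and on dose response follow-up; controls were probe without protein and protein plus probe with vehicle; some compounds called inactive have numbers as strong as hits; many hits fall short of the cut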
CSC inhib = blocks cancer stem cells; 300,000 compounds, 1.1% hits; AID 2717; inhibition, % at 7.5 µM; cancer stem cell-like cells viability, luminescence;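 active = mean at 75% or more and at least half the replicates too; inconclusive = mean and replicates disagree; tested in HMLE shEcad cells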;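 also: 0% = median of negative and 100% = median of positive control wells; the first replicate is given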
Rce1 inh = inhibitors of yeast Ras-converting enzyme. yeast membranes, quenched prenylated peptide cleavage fluorescence. calls only. 290,000 compounds, 0.27% hits. AID 2563;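 active = fall in fluorescence gain of 50% or more versus controls, with final raw signal at or below 3038400; inconclusive = same 50% fall but final raw signal above 3038400; inactive = fall in fluorescence gain under 50%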;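 also: plate controls were neutral control wells for no effect and wells lacking membranes for full effect; tested at 10 µM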
Target sequence (Q03530 whole entry, looked up): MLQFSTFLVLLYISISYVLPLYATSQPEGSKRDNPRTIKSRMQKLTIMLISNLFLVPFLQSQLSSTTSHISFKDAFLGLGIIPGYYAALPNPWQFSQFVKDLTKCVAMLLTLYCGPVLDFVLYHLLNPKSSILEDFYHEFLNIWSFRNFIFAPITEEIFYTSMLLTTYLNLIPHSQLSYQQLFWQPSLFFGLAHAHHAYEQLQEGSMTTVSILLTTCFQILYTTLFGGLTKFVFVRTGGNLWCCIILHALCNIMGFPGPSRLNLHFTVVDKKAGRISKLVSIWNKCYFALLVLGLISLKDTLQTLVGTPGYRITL
eIF4H FP inh = inhibitors of RNA binding by human eIF4H; Q15056; eIF4H fluorescence polarization binding assay; inhibition, % at 35 µM; 290,000 compounds, 0.94% hits; AID 2012;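 active = 50% or more with normal probe brightness, or confirmed in later tests; inconclusive = above 50% with abnormal brightness, or retests that disagree; inactive = below 50% or failed in later tests; about a fifth of its hits are not listed in these tables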;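 also: calls also rest on retests at 20 µM and on dose response follow-up; 0% = protein and probe with vehicle and 100% = probe without protein; strong numbers were not always called active; many hits fall short of the cut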
Yeast UUG start = alters start codon recognition fidelity in yeast; S. cerevisiae UUG-firefly luciferase reporter, luminescence/redox ratio; activity score, % at 18.7 µM; 350,000 compounds, 0.13% hits;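 active = replicate mean at a twofold rise or more, about +100% in these data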;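 also: firefly luciferase made from a UUG start codon reports start codon fidelity; reporter light over untreated wells divided by growth signal over untreated wells; some hits fall short of that in this replicate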
HIV Env fusion = inhibitors of HIV Env-mediated cell fusion; 360,000 compounds, 1.1% hits; HeLa-JRFL Env/CEM21 cell fusion, luciferase; inhibition, % at 12.3 µM;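 active = mean replicate inhibition score of at least 50 and every replicate individually at or above 50; inconclusive = only one of the two criteria met; inactive = mean below 50 and not all replicates reaching 50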;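 also: 0% = plate neutral controls and 100% = maraviroc near 300 nM; one replicate is shown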
eIF4H FP inh retest = second read-out of eIF4H FP inh, no call of its own (marks repeat the call); inhibition, %; compound at 20 µM; confirmation average;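 mean of two retest wells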
PABP FP inh retest = also measured in PABP FP inh; calls as there; inhibition, %; compound at 20 µM; confirmation repeats;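 mean of two retest wells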
MT1-MMP act inh RFP = also measured in MT1-MMP act inh; calls as there; RFP signal change, %; measured here: RFP expression control read;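 0 = vehicle wells; hits needed this value within 50% of zero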
Numbers without * were called inactive; i = inactive; ? = inconclusive; nt = no result given.

SMILES | MT1-MMP act inh | MT1-MMP act inh RFP | PABP FP inh | CSC inhib | Rce1 inh | eIF4H FP inh | Yeast UUG start | HIV Env fusion | others
CCc1nc(N)c(C#N)c(-c2ccncc2)c1C | 7 | 2 | -1 | -13 | i | -14 | -7 | -15
CCC(=O)N1CCc2cc(S(=O)(=O)CCC(=O)NCc3ccc(C)cc3)ccc21 | -1 | 1 | -5 | -11 | i | -16 | -7 | -2
Cc1ccc(OCC(=O)N/N=C2\CCOc3c(C)cccc32)cc1 | 9 | 1 | -7 | 4 | i | -4 | nt | nt
OCc1ccccc1-c1cnc2sc(NCc3ccc(F)cc3)nn12 | -5 | -3 | nt | nt | nt | nt | -14 | 8
CCCC(=O)NCCc1cc2cc(C)c(C)cc2[nH]c1=O | 6 | 0 | 5 | nt | i | -1 | nt | -46
Cc1[nH]c2ccccc2c1C(=O)C(=O)N(C)C1CCCCC1 | 4 | 1 | -6 | -11 | i | 20 | -12 | 8
O=C(N/N=C/c1ccccn1)c1c[nH]c2ccccc12 | 2 | 3 | -1 | 6 | i | -4 | nt | -30
CC(C)(C)c1ccc(C(=O)OCC(=O)NC2CC2)cc1 | 0 | -1 | nt | nt | nt | nt | -14 | 15
CC1CN(C(=O)COC(=O)c2ccc(C#N)cc2)CC(C)O1 (stereo unspecified) | -1 | 1 | 2 | nt | i | -12 | 17 | -9
CCN(C(=O)COC(=O)CNS(=O)(=O)c1ccccc1)c1ccccc1 | 3 | 6 | 2 | -2 | i | -8 | 3 | 1
COc1ccccc1N1CCN(C(=O)c2c(-c3c(F)cccc3Cl)noc2C)CC1 | 0 | -2 | 6 | nt | i | 10 | -19 | nt
COCCNC(=O)C1(C)CCCN(C(=O)c2ccc3ccccc3c2)C1 (stereo unspecified) | -1 | 0 | nt | nt | nt | nt | -21 | 16
O=C(COc1ccccc1Cl)N1CCN(C(=O)c2ccco2)CC1 | -1 | 4 | -1 | -11 | i | -2 | -14 | 7
COc1ccc(OC)c(NC(=O)N2CCCC(CNS(=O)(=O)c3cccs3)C2)c1 (stereo unspecified) | -1 | -4 | 4 | 5 | i | -5 | nt | 29
COCC(=O)N1CCN(c2ccc([N+](=O)[O-])cc2)CC1 | 3 | -2 | 2 | 9 | i | -1 | 671* | nt
O=C(NC1CCCC1)C1CCN(S(=O)(=O)c2ccccc2)CC1 | -2 | -2 | -4 | nt | i | -5 | -22 | 12
CCSc1nc(N2CCOCC2)c2c(c1C#N)CC(C)(C)N(C)C2 | -3 | 2 | 110 | 5 | i | 96 | -8 | nt | eIF4H FP inh retest=1;PABP FP inh retest=8
Cc1n[nH]c(=O)n(N=Cc2cccs2)c1=O | -3 | 1 | nt | nt | nt | nt | -5 | -14
COc1ccc2nc(SCC(=O)N(C)C3CCCCC3)c(C#N)cc2c1 | -13 | -19 | 14 | -3 | i | -8 | -9 | -15
O=C(COC(=O)c1cccc(Cl)c1)Nc1cccc(S(=O)(=O)NC2=NCCC2)c1 | 4 | 0 | nt | 3 | nt | nt | -3 | 0
CCc1cc(=O)oc2c(C)c(O)c(CN3CCCCC3)cc12 | 5 | -3 | -2 | -13 | ? | -7 | nt | -41
CCCC(=O)Nc1cc(OCC)c(NC(=O)NC2CCCCC2)cc1OCC | 9 | 2 | 1 | -8 | i | -2 | 2 | nt
Cc1cc(C(F)F)nn1CC(=O)NCc1ccco1 | 4 | 1 | -10 | -9 | i | -3 | nt | 0
CCCS(=O)(=O)c1ncc(Cl)c(C(=O)Nc2ccc(S(=O)(=O)Nc3ncccn3)cc2)n1 | 0 | 6 | 18 | -1 | i | 0 | -17 | -13
COc1cc(-c2nc3ccccc3s2)ccc1O | 11 | 6 | 2 | 21 | ? | -9 | -16 | -130

Four entries picked at random from those above:
SMILES | MT1-MMP act inh | MT1-MMP act inh RFP | PABP FP inh | CSC inhib | Rce1 inh | eIF4H FP inh | Yeast UUG start | HIV Env fusion | others
Cc1[nH]c2ccccc2c1C(=O)C(=O)N(C)C1CCCCC1 | 4 | 1 | -6 | -11 | i | 20 | -12 | 8
COc1ccc(OC)c(NC(=O)N2CCCC(CNS(=O)(=O)c3cccs3)C2)c1 (stereo unspecified) | -1 | -4 | 4 | 5 | i | -5 | nt | 29
CCCC(=O)NCCc1cc2cc(C)c(C)cc2[nH]c1=O | 6 | 0 | 5 | nt | i | -1 | nt | -46
CCc1cc(=O)oc2c(C)c(O)c(CN3CCCCC3)cc12 | 5 | -3 | -2 | -13 | ? | -7 | nt | -41

Other results follow:
SMILES | MT1-MMP act inh | MT1-MMP act inh RFP | PABP FP inh | CSC inhib | Rce1 inh | eIF4H FP inh | Yeast UUG start | HIV Env fusion | others
O=C1OC2(c3ccccc3)C3CCCC2C13 | 2 | 3 | 5 | -3 | i | -13 | -19 | -1
COc1cc(C(=O)C(=O)c2cc(OC)c(O)c(OC)c2)cc(OC)c1O | 1 | 4 | 6 | 0 | i | 4 | 2 | 6
O=c1c2ccccc2nnn1CSc1ccc2ccccc2n1 | -4 | 0 | 18 | 7 | i | 10 | nt | 10
O=C(CC1NC(=S)NC1=O)c1ccc(Cl)cc1 (stereo unspecified) | -1 | 1 | 9 | -3 | i | 1 | -17 | 3
CC(=O)Nc1cc(F)c2c(c1F)Cc1cc(F)ccc1-2 | -2 | -4 | nt | nt | nt | nt | -13 | -169
Cc1cc(NC(=O)C(C)SCC(=O)N(C)CC(=O)Nc2ccccc2Br)no1 (stereo unspecified) | 2 | 6 | nt | 9 | i | nt | -3 | -4
C=CCC(COCc1ccccc1)NS(=O)(=O)c1ccccc1Br (stereo unspecified) | 3 | 0 | -3 | 26 | i | -9 | -13 | 39
CCOC(=O)C(C#N)C(c1cccnc1)c1c(C)[nH][nH]c1=O (stereo unspecified) | -5 | -4 | 5 | -8 | i | 2 | -22 | 39
CCOC(=O)N1CCN(c2c(-c3ccc(C)c(C)c3)c(=O)c2=O)CC1 | -1 | -1 | -10 | -20 | i | -2 | 1 | 6
CC(C)C(NC(=O)c1ccc([N+](=O)[O-])cc1Cl)C(=O)N1CCCC1 (stereo unspecified) | -1 | 1 | 14 | nt | i | -1 | -16 | -76
CCC(=O)N1CCCC(C(=O)Nc2ccc3cn[nH]c3c2)CC1 (stereo unspecified) | 3 | 7 | nt | nt | nt | nt | -13 | -21
CC(=O)N1c2ccc(S(=O)(=O)N3CCCC3C(=O)Nc3cccc(F)c3)cc2CC1C (stereo unspecified) | 4 | -1 | 0 | nt | i | -8 | 4 | 2
Cc1ccc(-n2c(=O)c3cc4c(=O)n(-c5ccc(C)c(C)c5)c(=O)c4c(C(=O)c4ccc(C(=O)O)cc4)c3c2=O)cc1C | 5 | 4 | 17 | -11 | i | 78 | -7 | -6 | eIF4H FP inh retest=-3;PABP FP inh retest=15
COc1ccc(CNC(=O)C(OC(=O)c2ccco2)c2ccc(F)cc2)cc1 (stereo unspecified) | 2 | 2 | 7 | -17 | i | 4 | -11 | -7
CCN(CC(=O)Nc1ccc(OC)cc1)C(=O)c1cc(-c2cccs2)nn1-c1ccccc1 | -8 | 0 | nt | 22 | i | nt | 12 | -11
CCOC(=O)N1CCN(C(=O)c2ccc(CN(c3ccccc3)S(C)(=O)=O)cc2)CC1 | 6 | 3 | 0 | -18 | i | -6 | -5 | -2
O=C(Oc1cccc(C(=S)N2CCOCC2)c1)c1cccc(Cl)c1 | 1 | 3 | -9 | -18 | nt | 0 | -29 | 10
CC1(C)CCC[C@]2(C)C(CS(=O)c3ccccc3)=C(C=O)CC[C@@H]12 (stereo partly specified) | 4 | 2 | nt | 43 | i | nt | nt | 16
Cn1c(C(C)(O)C(O)c2ccccc2)nc2ccccc21 (stereo unspecified) | nt | nt | -8 | 8 | i | 0 | nt | nt
Cc1cccn2c(=O)c(/C=N/O)c(Nc3ccccc3F)nc12 | -2 | -3 | 5 | -9 | i | 47 | nt | 0
COc1c(/C=N/NS(=O)(=O)c2ccc(C)cc2)c(CCN(C)C(C)=O)cc2c1OCO2 | 2 | 0 | -8 | -8 | i | -2 | -11 | 15
Cc1cc(C(=O)CSc2nnnn2C)c(C)n1-c1ccc2c(c1)OCCO2 | 2 | -3 | 15 | -4 | i | 13 | -15 | -199
CCCC(=O)NC(=S)Nc1cccc(C(C)=O)c1 | 4 | 3 | -2 | 7 | i | -3 | -19 | nt
O=[N+]([O-])c1ccc(N2N=C(c3ccccc3)CC2c2ccccc2O)cc1 (stereo unspecified) | -66 | -1 | ? | 102* | i | ? | nt | 30
CSc1nc2cc(S(=O)(=O)N3CCCCC3)ccc2s1 | -7 | -6 | 9 | nt | i | -4 | -11 | 22
New compounds follow:
SMILES | MT1-MMP act inh | MT1-MMP act inh RFP | PABP FP inh | CSC inhib | Rce1 inh | eIF4H FP inh | Yeast UUG start | HIV Env fusion | others
CCCC(c1nnnn1CCc1ccccc1)N1CCN(C(=O)c2ccco2)CC1 (stereo unspecified) | -11 | -3 | 0 | 2 | i | -2 | 24 | -35
CC(C)(C)c1ccc(O)c(N=Cc2cc(Br)ccc2O)c1 | 6 | 1 | 2 | 42 | i | 2 | -5 | 16
CC1(C)CC(=O)C(CC2=C(O)CC(C)(C)CC2=O)=C(O)C1 | -1 | 3 | -3 | 3 | i | -15 | -18 | 0
COc1nn(-c2nc(-c3ccccc3)cc(C(F)(F)F)n2)cc1[N+](=O)[O-] | 5 | 3 | 1 | -6 | i | 22 | nt | nt
O=C(COC(=O)Cc1cccs1)NCc1ccc(F)cc1 | 3 | 5 | 9 | -12 | i | -5 | -12 | -5
COC(=O)C1=C(C)NC(=S)NC1c1ccc(-c2cc(Cl)ccc2Cl)o1 (stereo unspecified) | -8 | -10 | -1 | 15 | i | -2 | nt | 20
CC[C@@H](C)[C@H](CN[C@H](CNC)[C@@H](C)O)NCCc1ccc(OC)cc1 | 4 | 3 | 22 | -7 | i | 1 | -18 | -4
COc1ccc(CN(C)C(=O)c2ccccc2OCc2c(C)noc2C)cc1OC | 4 | -1 | nt | 0 | nt | nt | -8 | 30
O=C(NCCN=C1NS(=O)(=O)c2ccccc21)c1ccc2nccnc2c1 | -7 | 1 | 1 | nt | i | 11 | -9 | nt
Cn1c(NC(=O)/C=C/c2ccc(Cl)c(Cl)c2)cc(=O)n(C)c1=O | 0 | 3 | 5 | -17 | i | -2 | -12 | nt
CCc1n[nH]c(=S)n1/N=C/c1ccc(N(C)c2ccccc2)cc1 | -7 | -12 | -14 | 3 | i | 8 | -9 | -16
C=CCOC(=O)C1=C(C)NC(=S)C(C#N)(CC=C)C1c1ccccc1Cl (stereo unspecified) | -3 | -5 | -3 | -1 | i | -16 | -14 | 15
O=C(CN1CCN(c2ccc(O)cc2)CC1)Nc1ccc(SC(F)F)cc1 | 2 | -10 | 6 | 134* | i | 7 | -3 | 39
CCOC(=O)Cc1csc(NC(=O)c2c(C)noc2C)n1 | 2 | -3 | 2 | -8 | i | 1 | -17 | -8
c1cncc(-c2nc(NCCCn3ccnc3)c3ccccc3n2)c1 | -6 | -2 | 9 | -9 | i | 6 | nt | 22
COc1ccc(OCc2cc(C(=O)NC(C)c3csc(C)n3)no2)c(Cl)c1 (stereo unspecified) | -2 | 0 | -10 | -2 | i | -13 | 15 | -33
COc1ccccc1NS(=O)(=O)c1ccc2[nH]c(=S)oc2c1 | -7 | 0 | nt | -2 | nt | nt | nt | -11
O=C(CC1C(=O)NCCN1Cc1cccc(F)c1F)NC1CCCCCC1 (stereo unspecified) | -1 | -4 | 7 | -2 | i | 4 | -1 | 4
Cc1cc(C(=O)Nc2cccc(S(=O)(=O)N3CCCCC3)c2)c2ccccc2n1 | -2 | -11 | 3 | -6 | i | -2 | -6 | 14
